VACV mCherry inh – qHTS for Stage-Specific Inhibitors of Vaccinia Orthopoxvirus: mCherry Reporter Primary qHTS; 310,000 tested, 0.63% active; AID 720579, 2013; Vaccinia virus mCherry reporter infection, fluorescence; about a quarter of the inactives have no number; Potency, µM (titrated, usually from 36.5 µM), for inactives: at the highest dose activity change, negative = inhibition, usual class: inhibitors; active = well fitted inhibition curve with a large enough effect; inconclusive = small, poorly fitted or top-dose-only effect; inactive = no such curve, though single readings can be large or run the other way; tested in A549 cells; further: nearly all actives have a fitted effect of over 35% in size; inactives centre near -10
Vaccinia Venus – qHTS for Stage-Specific Inhibitors of Vaccinia Orthopoxvirus: Venus Reporter Primary qHTS | 330,000 tested, 0.46% active | Potency, µM (doses to about 36.5 µM), inactives show at the highest dose activity change, negative = inhibition, actives largely listed as inhibitors | Vaccinia virus Venus reporter expression, fluorescence; active means well fitted inhibition curve with a large enough effect; inconclusive means small, poorly fitted or top-dose-only effect; inactive means no such curve, though single readings can be large or run the other way; tested in A549 cells; further: nearly all actives have a fitted effect of over 30% in size; inactives centre near -10
An asterisk follows results filed as active; i = inactive; ? = inconclusive; · = no result given; & = joins results of further samples; [ ] = remark or other dose. On the % scale 0 is the no-effect control and ±100 the full control effect; potency means the concentration at half of the fitted maximal effect.

SMILES	VACV mCherry inh	Vaccinia Venus
O=C(NCc1ccccc1)c1ccc(NC(=O)C2CCCC2)cc1	i	-15%
CN(CC(=O)O)c1ccc(/C=C/c2ccnc3ccccc23)cc1	-2%	-4%
Cc1ccccc1-c1cc2nc(Oc3ccc4c(c3)OCO4)n(C)c(=O)c2s1	i	2%
CCC(=O)n1nc(-c2ccco2)nc1SCc1ccccc1	-18%	-7%
Cn1c(C(=O)N2CCN(Cc3ccc4c(c3)OCO4)CC2)cc2c(=O)n(C)c3ccccc3c21	?	-25%
Cc1cc2nc(C3CCCCC3)c(Cc3ccsc3)n2c(C)c1Br	2%	-7%
CN(Cc1nc(Cc2cccc(F)c2)no1)CC1COCCO1 (stereo not drawn)	-7%	-2%
CCCNc1ncnc2c1c(-c1ccccc1)cn2-c1ccccc1	-3%	-6%
CC(C)(C)n1nnnc1CN1CCN(C2CCCC2)CC1	·	-27%
Cc1ccc(C(=O)Nc2cc(=O)n(C)c(=O)n2C)cc1C	i	-9%
CC(NC(=O)NCCCn1ccnc1)(C(F)(F)F)C(F)(F)F	-12%	0%
Cc1cccc(C)c1-n1nnnc1C(CCc1ccccc1)N1CCC(n2c(=O)[nH]c3ccccc32)CC1 (stereo not drawn)	?	?
O=C(CCN1C(=O)c2ccccc2C1=O)Nc1ccc(F)cc1	-2%	-3%
Cc1ccc(NC(=S)N(C)C)cc1C	i	-13%
O=C(CC(O)(CC(=O)OCc1ccccc1)C(=O)OCc1ccccc1)OCc1ccccc1	-8%	14%
COC(=O)C1=C(c2ccccc2)C[C@@H]2CC[C@H]1N2C(=O)NCCO	i	-7%
O=C(Nc1nnc(COc2ccc(Cl)cc2)s1)C1CCCO1 (stereo not drawn)	-10%	-7%
O=C1CCC2c3[nH]c4ccccc4c3CCN12 (stereo not drawn)	i	14%
CCCOc1cccc(C(=O)Nc2cccc3ncccc23)c1	-10%	-15%
O=C(CN1CCCCCCC1)N/N=C/c1ccc(F)c(F)c1	-8%	-15%
CC(=O)c1cn(-c2ccc(Cl)cc2)c(=O)[nH]c1=O	i	0%
CN(C)c1ccnc(NCc2ccccc2)c1C#N	-22%	-9%
COC(=O)Nc1sc2c(c1C(=O)NCc1ccco1)CCCC2	i	-8%
Cc1ccc(S(=O)(=O)N(C)CC(=O)N2CCN(Cc3ccc4c(c3)OCO4)CC2)cc1	-23%	-9%
CC(C)NC(=O)C1CCN(C2CCN(C(=O)C3=CCCC3)CC2)CC1	i	-3%

Among those listed so far, these have four or more nitrogen atoms:
SMILES	VACV mCherry inh	Vaccinia Venus
Cn1c(C(=O)N2CCN(Cc3ccc4c(c3)OCO4)CC2)cc2c(=O)n(C)c3ccccc3c21	?	-25%
CCCNc1ncnc2c1c(-c1ccccc1)cn2-c1ccccc1	-3%	-6%
CC(C)(C)n1nnnc1CN1CCN(C2CCCC2)CC1	·	-27%
CC(NC(=O)NCCCn1ccnc1)(C(F)(F)F)C(F)(F)F	-12%	0%
Cc1cccc(C)c1-n1nnnc1C(CCc1ccccc1)N1CCC(n2c(=O)[nH]c3ccccc32)CC1 (stereo not drawn)	?	?
CN(C)c1ccnc(NCc2ccccc2)c1C#N	-22%	-9%

(next part)
SMILES	VACV mCherry inh	Vaccinia Venus
COC(=O)[C@@]12C[C@@H](CC(=O)NCc3cccs3)C(=O)N(Cc3cccc4ccccc34)C1=CCC(C)(C)C2	i	?
Cn1c(=O)oc2cc(S(=O)(=O)N3CCCC(C(=O)N4CCN(c5ccccc5F)CC4)C3)ccc21 (stereo not drawn)	-13%	-14%
O=C(Nc1ccc(Cl)cc1)N1CC2CC(C1)c1cccc(=O)n1C2 (stereo not drawn)	i	4%
Nc1ccc(Cc2ccc([N+](=O)[O-])cc2)cc1	-22%	-13%
C/C(=N\NC(=O)c1nnn(-c2nonc2N)c1-c1cccs1)c1ccc(O)cc1	-2%	-14%
NS(=O)(=O)c1ccc(NC(=S)NC(=O)c2ccc(Br)o2)cc1	i	-8%
CC(C)(C)OC(=O)NCc1ccc(NC(=O)c2nc[nH]c2C(=O)NCCCNC(=O)c2[nH]cnc2C(=O)Nc2ccc(CNC(=O)OC(C)(C)C)cc2)cc1	i	-20%
CCC(=O)N[C@@H]1c2ccccc2C2(CCN(Cc3cnc(N(C)C)s3)CC2)[C@H]1OC	-13%	-3%
Cc1ccc2nsnc2c1S(=O)(=O)NCCc1c(C)[nH]c2ccc(F)cc12	-9%	-20%
CCOP(=O)(OCC)C(NC(=O)NS(=O)(=O)c1ccc(C)cc1)c1ccccc1 (stereo not drawn)	-8%	-5%
COc1ccc(CCNc2nc3ccc(C)cc3n3cnnc23)cc1OC	-19%	-12%
CCCCN(CC)CCCNC(=O)Cn1nc(Cc2ccncc2)c2ccccc2c1=O	i	-9%
CN(C)c1ccc(/C=C/c2cc[n+](C)c3ccc4ccccc4c23)cc1	37%[activator]	?
CSc1nc(SCCN(C)C)c2c3c(sc2n1)COC(C)(C)C3	i	-7%
CCOC(=O)c1ccc(NC(=O)Cn2nnc(-c3ccc(C)cc3)n2)cc1	-10%	-1%
O=C(c1ccccc1)N1N=C(c2ccccc2O)CC1c1ccccc1 (stereo not drawn)	-16%	-8%
Cc1oc(-c2ccc(Cl)cc2)nc1CN1CCCC(C(=O)NCCCN2CCOCC2)C1 (stereo not drawn)	?	-22%
CC(=O)c1cccc(NC(=O)NNC(=O)c2ccc(-c3ccccc3)cc2)c1	-14%	-4%
COc1ccc(-c2nnc(SCC(=O)NCc3cccs3)n2C(C)C)cc1	·	-19%
CCOc1cc(/C=N\NC(=O)C2C(=O)NCC2c2ccccc2)ccc1OC (stereo not drawn)	-5%	-13%
CN(C)c1ccc(/C=C/c2cnnc3ccccc23)cc1	-5%	68%[activator]
CCCCn1c(=O)nc2n(-c3ccc(F)cc3)c3ccccc3cc-2c1=O	2%	7%
O=C(CSc1nnnn1-c1ccc(C(=O)O)cc1)NC1CCCCC1	i	6%
O=S(=O)(Nc1ccc(S(=O)(=O)Nc2ncccn2)cc1)c1ccc(Cl)cc1	i	-4%
CCOC(=O)N1C(=O)C2(CCCCC2)N(c2ccccc2Cl)C1=S	-28%	?
Other results.
SMILES	VACV mCherry inh	Vaccinia Venus
Cc1ccc(CNC(=O)C2CCN(S(=O)(=O)c3ccc(Br)s3)CC2)cc1	-20%	-19%
CCCCSc1nc2ccccc2[nH]1	-6%	-13%
COc1ccc(C2Nc3ccccc3-c3nnc(SC)nc3O2)cc1C (stereo not drawn)	-9%	-8%
COC(=O)c1ccccc1N=C(SC)N(C)C	-8%	6%
CCOC(=O)c1ccc(N2CCN(c3ccccc3F)CC2)c(NC(=O)Nc2ccc(Cl)c(Cl)c2)c1	?	?
COC(=O)/C=C/c1ccc2c(c1)S(=O)(=O)N(c1cccc(OC)c1)[C@H]2CC(=O)OC	-16%	-13%&-15%
CCN(CC)C(=S)SCC(=O)Nc1ncc2c(n1)CC(C)(C)CC2=O	-1%	-3%
Cc1noc(C)c1NC(=O)N(C)C[C@@H]1Oc2ccc(NC(=O)CCC(F)(F)F)cc2CC(=O)N([C@@H](C)CO)C[C@@H]1C	-9%	6%
O=[N+]([O-])c1ccc(CN2CC(N3CCC(c4ccccc4)CC3)CS2(=O)=O)cc1 (stereo not drawn)	i	-8%
CSC1=N/C(=C\c2ccc(C)s2)C(=O)S1	-21%	-5%
O=C(NCCN1CCCCC1)c1cc2ccccc2[nH]1	·	-8%
CC1CCCCC1NC(=O)CN(C)S(=O)(=O)c1ccc2c(c1)CCC(=O)N2 (stereo not drawn)	0%	-4%
S=C(Nc1ccccc1)NC1CCN(Cc2ccccc2)CC1	-6%	-7%
CCc1ccc(NC(=O)CN2C(=O)CCSc3ccc(S(=O)(=O)N4CCCC4)cc32)cc1	-12%[7.34 µM]	-9%[7.34 µM]
CCn1nc(-c2ccccc2)c(-c2ccccc2)c(C(=O)OCCOC)c1=O	-6%	-6%
CC(=O)Nc1ccc(OCC(O)Cn2nc(C)c(Br)c2C)cc1 (stereo not drawn)	i	-3%
COC(=O)c1ccccc1NC(=O)CN1CCN(c2ccccn2)CC1	i	-25%
O=C(Nc1cc([N+](=O)[O-])ccc1Cl)c1ccc2c(c1)OCO2	-6%	-4%
CC(C)C[C@@H]1CN=C(N)N1C[C@@H]1CCCN1C[C@H](C)N1C[C@@H](Cc2ccccc2)N(CCCC2CCCC2)C1=N	i	0%
CCOC(=O)c1c(S(=O)(=O)NCC(=O)Nc2cccc(CC)c2)c(C)n(C)c1C	-12%	-12%
Cn1c(=O)oc2cc(S(=O)(=O)N3CCC(C(=O)NCC4COc5ccccc5O4)CC3)ccc21 (stereo not drawn)	-10%	-16%
C[C@H](NC(=O)C1CCN(S(=O)(=O)c2ccccc2)CC1)C(=O)NCc1cccnc1	i	-16%
O=C(Nc1nc(-c2ccc(F)cc2)cs1)C1CCN(C(=O)c2ccc(F)cc2)CC1	?	?
Cc1ccccc1-c1nnc(CN2CCN(c3cc(Cl)ccc3C)CC2)o1	-18%	-10%
CCOC(=O)N1CCN(C(=O)c2ccc(C)c(S(=O)(=O)N3CCCCC3)c2)CC1	-18%	-10%
Additional records follow:
SMILES	VACV mCherry inh	Vaccinia Venus
Cc1ccc(S(=O)(=O)N2CCC(C(=O)Nc3nnc(C4CCCC4)s3)CC2)cc1	-14%	-14%
CC(=O)c1ccc(NC(=O)c2cc(C)no2)cc1	i	-10%
N=C1/C(=C\c2ccc(OC(=O)c3ccc(F)cc3)cc2)C(=O)N=C2SC(N3CCCC3)=NN12	-6%	-3%
Cc1cc(C)c(NC(=O)CSc2ccc(-c3sc(-c4ccccc4)nc3C)nn2)c(C)c1	-15%	-20%
Cc1c(NC(=O)C2CC(c3cccc(Br)c3)=NO2)c(=O)n(-c2ccccc2)n1C (stereo not drawn)	-10%	-9%
CCN(CC)C(=O)C1CC(=O)OC1(C)C (stereo not drawn)	i	-7%
c1ccc2cc(C3N4CCCN34)ccc2c1 (stereo not drawn)	-13%	-18%
CN(C)/C=N/c1[nH]ncc1C#N	-2%	11%
CCOc1cc2c(cc1OCC)C(CC(=O)O)N(C(=O)Nc1ccc(Br)c(C)c1)CC2 (stereo not drawn)	i	-16%
COc1cc(/C=N\NC(=O)CNC(=O)C(c2ccccc2)c2ccccc2)ccc1O	-6%	-17%
COc1cc(OC)nc(NC(=O)NS(=O)(=O)c2ccc(F)cc2)n1	i	0%
CCCCOCCOCCOCCCC	i	-11%
O=c1[nH]c(C2CCCN(S(=O)(=O)c3ccccc3Cl)C2)nc2c1nnn2Cc1ccc(OC(F)(F)F)cc1 (stereo not drawn)	-8%	-23%
COc1ccc(NC(=O)CN2C(=O)C(c3ccc(C)cc3)=NC23CCCCCC3)cc1Cl	-12%	-10%
COc1ccc(OCc2cccc(C(=O)NN)c2)cc1	i	-5%
C=CCNc1sc(C(=O)c2ccccc2)c(N)c1C#N	·	?
CCn1cc(C(=O)OCC(=O)Nc2cccc(C(C)=O)c2)c(=O)c2ccc(C)nc21	12%	-9%
Cc1ccc(Nc2nc(C)c3c(n2)CC(C)CC3=O)c(C)c1 (stereo not drawn)	0%[7.34 µM]	-2%[7.34 µM]
O=C(NC1CCCC1)C(c1cccs1)N(Cc1ccco1)C(=O)c1csnn1 (stereo not drawn)	-7%	-7%
COC/C=C/C1=CC2=CC(=O)C(C)(OC(=O)c3cnc4ccccc4n3)C(=O)C2=CN1C1CC1 (stereo not drawn)	-4%	-7%
CC1CC(C)CN(c2cc(=O)n(Cc3ccc(F)cc3)c(=O)[nH]2)C1 (stereo not drawn)	-18%	2%
O=C(O)CCc1ccc(-c2ccc(Cl)cc2)n1NC(=O)c1ccc(O)cc1	i	-7%
COc1cc2ncc(-c3ccccc3)nc2cc1OC	-2%	-19%
CCCOP(=O)(c1ccc(N(C)C)cc1)C(O)c1c(Cl)cccc1Cl (stereo not drawn)	-10%	-13%
NC(Cc1cc(I)c(Oc2cc(I)c(O)c(I)c2)c(I)c1)C(=O)O (stereo not drawn)	-17%	-10%
(listing goes on)
SMILES	VACV mCherry inh	Vaccinia Venus
O=C(c1cn(C2CCCN(Cc3cc(Cl)ccc3O)C2)nn1)N1CCCCC1 (stereo not drawn)	-3%	-6%
O=C(N/N=C/c1ccc(OC(=O)c2ccccc2)cc1)c1cccc(O)c1	-10%	-10%
CCCCSCCCNC(=O)C1CCN(Cc2nc(-c3cccc(Br)c3)oc2C)CC1	-17%	-16%
Cc1ccc2sc(N(CCCN(C)C)C(=O)c3ccc(S(=O)(=O)N(C)Cc4ccccc4)cc3)nc2c1C	-26%	?
CC(C)[C@@H]1O[C@H](CCc2ccccc2)CC2=C1C(=O)OC(C)(C)O2	-1%	5%
CC(=O)c1cc(-c2ccccc2)n(CCC(=O)Nc2nc3c(C)cccc3s2)c1C	-19%	-19%
COc1ccc(N2CCN(CC(=O)Nc3ccccc3SC)CC2)cc1	i	-9%
Cc1ccc(NC(=O)CS(=O)(=O)c2nc(-c3ccc(C)cc3)cn2-c2ccc(C)cc2)cc1	?	-23%
CCOC(=O)c1c(NC(=S)Nc2ccccc2)sc2c1CCCCC2	-8%	-8%
O=C(C1CCC1)N1CCc2cc(S(=O)(=O)Nc3ccc4c(c3)OCCO4)ccc21	-29%	?
COc1ccc(C2Nc3ccccc3C(=O)N2c2ccc(C)cc2)cc1Cn1cc([N+](=O)[O-])cn1 (stereo not drawn)	i	-9%

Taken from the entries so far, three compounds:
SMILES	VACV mCherry inh	Vaccinia Venus
COc1ccc(N2CCN(CC(=O)Nc3ccccc3SC)CC2)cc1	i	-9%
Cc1ccc(NC(=O)CS(=O)(=O)c2nc(-c3ccc(C)cc3)cn2-c2ccc(C)cc2)cc1	?	-23%
CCOC(=O)c1c(NC(=S)Nc2ccccc2)sc2c1CCCCC2	-8%	-8%

Source: PubChem BioAssay (National Center for Advancing Translational Sciences (NCATS))
